High-throughput results (PubChem)
RE007 growth inh: qHTS Assay for Inhibitors of the HIV-1 protein Vpr; S. pombe RE007 Vpr strain, BacTiter-Glo ATP luminescence, 24 h; control for the full effect not named in the record; Potency, µM (titrated, usually from 92.2 µM), for the others: top-dose activity change, negative = less growth; hit rate 0.21% among 360,000; AID 651644, 2012; active = well fitted falling curve with a large enough effect; inconclusive = small, poorly fitted or top-dose-only effect; inactive = no such curve, though single readings can be large or run the other way;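 note: % is set by controls: 0 for no effect and ±100 for the full control effect; nearly all actives have a fitted effect of over 50% in size; the assay follows cell death caused by Vpr and the record does not say whether a fall means rescue or toxicity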
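Fission yeast RE007 carrying one integrated HIV-1 vpr copy, seeded at OD 0.01 in PMG+AL medium with 23 nL pinned compound. Grown 24 h at 30 degrees; viability read by BacTiter-Glo luminescence after 5 min.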
Cruzain inh Det: qHTS Assay for Promiscuous and Specific Inhibitors of Cruzain (with detergent); Cruzipain (Trypanosoma cruzi), P25779; purified cruzain, Z-FR-AMC fluorescence, 0.01% Triton; Potency, µM, for the others: max response, negative = inhibition, actives largely listed as inhibitors; hit rate 0.43% among 200,000; active = well fitted curve in the direction sought with a large enough effect; inconclusive = small, poorly fitted or top-dose-only effect, or another doubt; inactive = no such curve, though single readings can be large; an effect the other way counts as inactive or inconclusive;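 note: plate controls were neutral wells for no effect and buffer without enzyme for full effect; nearly all actives have a fitted effect of over 40% in size; top concentration of the series not given in the record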
Target sequence (P25779 123-467 limits assumed): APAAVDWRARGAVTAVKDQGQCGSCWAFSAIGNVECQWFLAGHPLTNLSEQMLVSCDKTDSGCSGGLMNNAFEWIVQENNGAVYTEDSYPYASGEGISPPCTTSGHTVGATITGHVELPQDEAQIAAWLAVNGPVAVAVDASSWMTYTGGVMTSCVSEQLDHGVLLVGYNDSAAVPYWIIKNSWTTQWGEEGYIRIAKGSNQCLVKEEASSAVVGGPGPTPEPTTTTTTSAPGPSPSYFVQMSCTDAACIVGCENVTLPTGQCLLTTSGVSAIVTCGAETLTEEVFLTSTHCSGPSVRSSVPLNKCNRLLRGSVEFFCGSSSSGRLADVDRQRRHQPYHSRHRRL
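Purified cruzain (1.5 nM final) was preincubated with compounds for 15 min at room temperature in 100 mM sodium acetate pH 5.5, 5 mM DTT, 0.01% Triton X-100. Reaction started with 2 uM Z-FR-AMC; AMC fluorescence change over 60 s gave activity.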
SARS PLP yeast: qHTS of Yeast-based Assay for SARS-CoV PLP. Potency, µM (doses to about 32.9 µM), inactives show at the highest dose activity, positive = growth rescue. hit rate 0.19% among 330,000. S. cerevisiae expressing SARS-CoV PLpro, growth rescue; control for the full effect not named in the record; note: 0% is about no effect; nearly all actives have a fitted effect of over 55% in size; growth read by luminescence after 48 h
LASV entry inh: qHTS for Inhibitors of binding or entry into cells for Lassa Virus. AID 540256, 2011. hit rate 1.2% among 300,000. Lassa virus pseudotype entry inhibition, cell reporter; control for the full effect not named in the record. Potency, µM (series often up to 37.9 µM), for the others: top-dose activity change, negative = inhibition, hits mostly inhibitors; active means well fitted inhibition curve with a large enough effect; inconclusive means small, poorly fitted or top-dose-only effect, or effect the other way; inactive means flat fitted curve, though single readings scatter; tested in HEK293 cells; note: % is set by controls: 0 for no effect and ±100 for the full control effect; nearly all actives have a fitted effect of over 50% in size; luciferase read-out
Cruzain inh noDet: qHTS Assay for Promiscuous and Specific Inhibitors of Cruzain (without detergent); purified cruzain, Z-FR-AMC fluorescence, no detergent; Potency, µM, without a hit: max response, negative = inhibition, actives largely listed as inhibitors; hit rate 2.3% among 200,000; active = well fitted curve in the direction sought with a large enough effect; inconclusive = small, poorly fitted or top-dose-only effect, or another doubt; inactive = no such curve, though single readings can be large; an effect the other way counts as inactive or inconclusive;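 note: plate controls were enzyme without inhibitor for no effect and buffer without enzyme for full effect; nearly all actives have a fitted effect of over 40% in size; top concentration of the series not given in the record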
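Purified cruzain at 1.5 nM, pre-incubated 15 min with compound at room temperature in 100 mM sodium acetate pH 5.5, 5 mM DTT, 0.00005% Triton X-100. Reaction started with 2 uM Z-FR-AMC; AMC fluorescence increase over 60 s gives rate.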
MARV entry inh: qHTS for inhibitors of binding or entry into cells for Marburg Virus; Marburg virus pseudotyped entry inhibition, cell reporter; control for the full effect not named in the record; about a third of the inactives were read at about 46 µM; Potency, µM (highest dose often 37.8 µM), for inactives: at the highest dose activity change, negative = inhibition, hits mostly inhibitors; hit rate 1.8% among 300,000; AID 540276, 2011; active = well fitted inhibition curve with a large enough effect; inconclusive = small, poorly fitted or top-dose-only effect, or effect the other way; inactive = flat fitted curve, though single readings scatter; tested in HEK293 cells; about a fifth of its hits are not listed in these tables; note: % is set by controls: 0 for no effect and ±100 for the full control effect; luciferase read-out
NS1 inh: qHTS Assay for Inhibitors of Influenza NS1 Protein Function | S. cerevisiae slowed by influenza A NS1, growth recovery by OD600 | Potency, µM (top dose mostly 46.1 µM), for inactives: top-dose activity, positive = more growth | hit rate 0.4% among 270,000; note: actives are rising curves; nearly all actives have a fitted effect of over 50% in size
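Read-out: OD600 growth recovery of NS1-expressing budding yeast. Cells grown overnight at 30C in -URA glucose medium, washed, resuspended and diluted 1:100 in 2% galactose assay medium, pH 6.0. Same strain lacking NS1 served as positive control.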
2A StopGo: High Throughput Screening for Foot and Mouth Disease Virus Antivirals; human cells with a luciferase reporter of 2A StopGo recoding; control for the full effect not named in the record; Potency, µM (highest dose often 57.9 µM), for the others: at the highest dose signal change, negative = less light; hit rate 1.2% among 410,000; AID 1159524, 2015; active = well fitted falling curve with a large enough effect; inconclusive = small, poorly fitted or top-dose-only effect; inactive = no such curve, though single readings can be large or run the other way; tested in HEK293T cells; note: % is set by controls: 0 for no effect and ±100 for the full control effect; nearly all actives have a fitted effect of over 45% in size; luciferase light after 4 h
* hit, by the source's call; ? = inconclusive; nt = no result given; [ ] = dose if it differs, or a comment. Unless noted, calls come from the whole dose curve; as a rule, active means well fitted rising curve with a large enough effect; inconclusive means small, poorly fitted or top-dose-only effect; inactive means no such curve, though single readings can be large or run the other way. Potency is the fitted concentration of half-maximal effect. No enrichment for hits; overall some 4.7% were active at least once.

SMILES | RE007 growth inh | Cruzain inh Det | SARS PLP yeast | LASV entry inh | Cruzain inh noDet | MARV entry inh | NS1 inh | 2A StopGo
O=C(O)c1cnn(-c2ccccc2)c1C(F)(F)F | -11% | nt | -4% | 22% | nt | ? | 0% | 2%
CCOC(=O)c1[nH]c(C)c(C(=O)Nc2ccc3c(c2)CCC3)c1C | 5% | 2.3% | 0% | -27% | 0% | -4% | -47% | 26%
Cc1ccc(-n2ncc3c(N(CCO)Cc4ccccc4)ncnc32)cc1 | nt | -1.2% | nt | ? | ? | nt | nt | 20%
CCCCCN(C(=O)CCC(=O)OCC(=O)Nc1cccc(CC)c1)c1c(N)n(CCCC)c(=O)[nH]c1=O | 7% | nt | 2% | -23% | nt | -19% | nt | -12%
COc1ccc(C(=O)Nc2nc3nc(C)c(Cc4ccccc4)c(=O)n3[nH]2)cc1OC | nt | 4.2% | nt | ? | 16% | 12%[46.1 µM] | nt | -3%
O=C(CSc1nccn1-c1ccc(Cl)cc1)NCc1ccc2c(c1)OCO2 | 3% | -3.2% | 9% | nt | 2% | nt | -140% | -25%
CC(C)Sc1nc2c(c(=O)[nH]c(=O)n2C)n1Cc1ccccc1 | 8% | nt | 20% | -19% | nt | 0% | 15% | -23%
COC(=O)c1c(-c2ccc(Cl)cc2)noc1N1CCN(c2ccc(C(C)=O)cc2)CC1 | nt | 1.9% | nt | 11%[46.1 µM] | -5% | nt | nt | ?
CCOC(=O)N1CCN(C(=O)CNC(=O)c2nn(-c3ccc(OC)c(Cl)c3)c(=O)c3ccccc23)CC1 | -3% | nt | 2% | ? | nt | ? | -3% | 2%
Cc1c(NC(=O)COc2ccc(C(C)C)cc2)c(=O)n(-c2ccccc2)n1C | -9% | nt | 0% | 4% | nt | ? | -2% | -16%
O=C(/C=C/c1ccc(Cl)cc1Cl)Nc1cccc(S(=O)(=O)NC2=NCCCCC2)c1 | 4% | -7.8% | -5% | -20% | -24% | 2% | -3% | 11%
CN(C)CCOC(=O)C12CC3(C)CC(C)(CC(C)(C3)C1)C2 | -16% | 3.3% | 3% | ? | -1% | -14% | 7% | nt
O=C(NN1CCCCC1)c1ccc(COc2ccc(Cl)cc2)cc1 | 0% | nt | 1% | -13%[46.1 µM] | nt | -5%[46.1 µM] | nt | -5%
CC(C)CC1NC(=O)N(CC(=O)Nc2ccc3c(c2)OCCO3)C1=O (centres undefined) | -2% | nt | 1% | 17% | nt | 26% | nt | -15%
O=C(CN1CCN(Cc2cccc(F)c2)CC1)NCc1ccccc1 | -8% | nt | 6% | ? | nt | -21% | 7% | -14%

The closing 4 entries of the part above lead into the next:
SMILES | RE007 growth inh | Cruzain inh Det | SARS PLP yeast | LASV entry inh | Cruzain inh noDet | MARV entry inh | NS1 inh | 2A StopGo
CN(C)CCOC(=O)C12CC3(C)CC(C)(CC(C)(C3)C1)C2 | -16% | 3.3% | 3% | ? | -1% | -14% | 7% | nt
O=C(NN1CCCCC1)c1ccc(COc2ccc(Cl)cc2)cc1 | 0% | nt | 1% | -13%[46.1 µM] | nt | -5%[46.1 µM] | nt | -5%
CC(C)CC1NC(=O)N(CC(=O)Nc2ccc3c(c2)OCCO3)C1=O (centres undefined) | -2% | nt | 1% | 17% | nt | 26% | nt | -15%
O=C(CN1CCN(Cc2cccc(F)c2)CC1)NCc1ccccc1 | -8% | nt | 6% | ? | nt | -21% | 7% | -14%
O=C(Cn1cc(C(=O)c2cccs2)c2ccccc21)NCC1CCCO1 (centres undefined) | 29% | -2.9% | -2% | -6% | -9% | 25% | -2% | -9%
COc1ccc(C2c3c(oc4ccc(Cl)cc4c3=O)C(=O)N2Cc2ccco2)cc1OC (centres undefined) | nt | 2.1% | 2% | nt | 9% | 2% | ? | nt
Cc1noc(C)c1CN1C(=O)NC2(CCCCCCC2)C1=O | 4% | 6.5% | 6% | ? | 11% | ? | 2% | -19%
CCNC(=O)CCSc1nc2cc(Cl)ccc2o1 | -11% | -2.4% | -18% | 0% | -4% | -4% | -2% | 0%
CN(C)C(CNC(=O)c1ccc(NS(=O)(=O)c2cccc([N+](=O)[O-])c2)cc1)c1ccco1 (centres undefined) | ? | nt | 1% | 9% | nt | 8% | -7% | 6%
O=C(NCCN1C(=O)S/C(=C\c2ccccc2F)C1=O)C1CCN(S(=O)(=O)c2cccs2)CC1 | 19% | -7.3% | -4% | 3% | 4% | 27% | -9% | -2%
CCOC(=O)c1c2c(n(-c3ccc(OC)cc3)c1C)C(=O)C(=O)c1ccccc1-2 | -14% | nt | nt | 2.2µM* | nt | ? | nt | 13µM*
C=CCn1c(NCc2ccccc2)nc2ccccc21 | -17% | -1.7% | 5% | 15% | -9% | ? | -18% | 7%
CCOC(=O)C1CCN(C(=O)Cn2cc(C(=O)C3CC3)c3ccccc32)CC1 | -8% | -2.8% | 7% | -11% | 5% | ? | 2% | nt
CSc1cccc(NC(N)=S)c1 | 7% | nt | 0% | -20%[46.1 µM] | nt | 3%[46.1 µM] | -1% | -10%
CN(C)S(=O)(=O)c1cccc(NC(=O)c2ccc(-n3cncn3)c([N+](=O)[O-])c2)c1 | -2% | nt | 7% | -28%[46.1 µM] | nt | -13% | nt | ?
Cc1cccc(CNC(=O)c2ccc3nc(-c4ccccc4)c(-c4ccccc4)nc3c2)c1 | nt | -0.9% | nt | nt | 6% | -2%[46.1 µM] | nt | -19%
Cc1nnc(SC(C)C(=O)Nc2sc3c(c2C#N)CCCC3)[nH]c1=O (centres undefined) | 6% | nt | 0% | nt | nt | -9%[46.1 µM] | 15% | -12%
Cc1cc2ccccc2n2c(SCC(=O)N3CCN(C(=O)c4ccco4)CC3)nnc12 | nt | -0.4% | 1% | nt | 4% | nt | 1% | nt
N#Cc1cn(OCc2ccccc2)c(=O)[nH]c1=O | 0% | 0.4% | 1% | -3% | 5% | 23% | -8% | -6%
Cc1c(C(=O)N2CC3(CC(c4cccc(NC(=O)CC(c5ccccc5)c5ccccc5)c4)=NO3)C[C@@H]2C(N)=O)cc([N+](=O)[O-])cc1[N+](=O)[O-] (some centres undefined) | -5% | nt | 4% | nt | nt | nt | 11% | -13%
Cc1ccc(-n2nc(CO)c(C(=O)NCCCCc3ccccc3)n2)cc1 | nt | 0.5% | nt | 18%[46.1 µM] | -3% | ? | nt | -9%
COc1cc(NC(=O)CC(C)C)ccc1NC(=O)c1ccco1 | 2% | nt | nt | 16% | nt | 2% | -5% | nt
O=C(CSc1nnc2ccc(-c3cccnc3)nn12)Nc1ccc(F)cc1 | 3% | nt | 3% | 1% | nt | -6% | nt | -9%
Cc1noc(C)c1COc1cccc(C(=O)N2CCN(C/C=C/c3ccccc3)CC2)c1 | 26% | 0.3% | 0% | -1% | 23% | -13% | -23% | ?
Fc1ccc(OCc2cc(-c3ccccc3)no2)cc1 | 0% | nt | 0% | nt | nt | nt | -9% | 56%[activator]
CCOC(=O)c1ccc(NC(=O)Nc2cc3c(cc2N2CCCC2)n(C)c(=O)n3C)cc1 | nt | -7.7% | nt | ? | ? | -26%[46.1 µM] | nt | -30%
O=C(NC(=C(Cl)Cl)S(=O)(=O)c1ccc(Cl)cc1)c1ccccc1 | -4% | nt | 2% | nt | nt | nt | -5% | 28µM*
CCOC(=O)c1ccc(NS(=O)(=O)c2ccc3c(c2)oc(=O)n3C)cc1 | 4% | -6.6% | 6% | nt | -19% | nt | -40% | -12%
CN(CC(=O)NCc1ccncc1)S(=O)(=O)c1cc(Cl)ccc1Cl | -8% | nt | 13% | 12% | nt | 3%[46.1 µM] | 2% | -11%
Cc1cc(C)cc(NC(=O)C2CCC(CNC(=O)[C@@H]3Cc4ccccc4CN3)CC2)c1 (some centres undefined) | -4% | nt | 11% | nt | nt | nt | 3% | -27%
Cc1cn2c(=O)c(S(=O)(=O)Nc3ccc(F)cc3F)c(C)nc2s1 | nt | -3.0% | nt | -17%[46.1 µM] | 6% | nt | nt | -1%
Cc1c(NC(=O)C23CC4CC(CC(C)(C4)C2)C3)c(=O)n(-c2ccccc2)n1C | 12% | 3.3% | 4% | 3% | 3% | -5% | -2% | -16%
CC(=O)NCC(=O)N1CCCC(C(=O)c2ccc3c4c(cccc24)CC3)C1 (centres undefined) | 0% | nt | 1% | nt | nt | nt | -3% | -17%
COc1ccc(-c2c(C)c3ccc(O)c(CN4CCC(C)CC4)c3oc2=O)cc1OC | nt | -7.5% | nt | 4%[46.1 µM] | -14% | nt | nt | -3%
Cc1ccc(NC(=O)CCS(=O)(=O)c2cccc3nsnc23)c(C)c1 | nt | -0.4% | nt | 7%[46.1 µM] | -11% | 18%[46.1 µM] | nt | 10%
Cc1ccc(S(=O)(=O)NCCC(=O)Nc2ccc(Cl)c(Cl)c2)cc1C | 7% | -8.5% | 29% | nt | 11% | nt | -1% | 19%

Part of the list above, field by field:
Cc1ccc(NC(=O)CCS(=O)(=O)c2cccc3nsnc23)c(C)c1
  RE007 growth inh = nt
  Cruzain inh Det = -0.4%
  SARS PLP yeast = nt
  LASV entry inh = 7%[46.1 µM]
  Cruzain inh noDet = -11%
  MARV entry inh = 18%[46.1 µM]
  NS1 inh = nt
  2A StopGo = 10%

CN(CC(=O)NCc1ccncc1)S(=O)(=O)c1cc(Cl)ccc1Cl
  RE007 growth inh = -8%
  Cruzain inh Det = nt
  SARS PLP yeast = 13%
  LASV entry inh = 12%
  Cruzain inh noDet = nt
  MARV entry inh = 3%[46.1 µM]
  NS1 inh = 2%
  2A StopGo = -11%

Fc1ccc(OCc2cc(-c3ccccc3)no2)cc1
  RE007 growth inh = 0%
  Cruzain inh Det = nt
  SARS PLP yeast = 0%
  LASV entry inh = nt
  Cruzain inh noDet = nt
  MARV entry inh = nt
  NS1 inh = -9%
  2A StopGo = 56%[activator]
